HNF4A DNA FP – change in binding of human HNF4 alpha to DNA; P41235; HNF4a-FITC DNA binding, fluorescence polarization, 1 h; activity change, % at 10 µM; 360,000 tested, 0.3% active; AID 1224865; in the data active means activity change above about 30%, passing the limit was not always enough;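 further: controls were the assay level and a saturating level of protein; the project sought stronger binding though the title names inhibitors; some compounds called inactive have numbers as strong as hits; positive values seem to mean higher polarization but the record does not say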
Target sequence (P41235 whole entry, looked up): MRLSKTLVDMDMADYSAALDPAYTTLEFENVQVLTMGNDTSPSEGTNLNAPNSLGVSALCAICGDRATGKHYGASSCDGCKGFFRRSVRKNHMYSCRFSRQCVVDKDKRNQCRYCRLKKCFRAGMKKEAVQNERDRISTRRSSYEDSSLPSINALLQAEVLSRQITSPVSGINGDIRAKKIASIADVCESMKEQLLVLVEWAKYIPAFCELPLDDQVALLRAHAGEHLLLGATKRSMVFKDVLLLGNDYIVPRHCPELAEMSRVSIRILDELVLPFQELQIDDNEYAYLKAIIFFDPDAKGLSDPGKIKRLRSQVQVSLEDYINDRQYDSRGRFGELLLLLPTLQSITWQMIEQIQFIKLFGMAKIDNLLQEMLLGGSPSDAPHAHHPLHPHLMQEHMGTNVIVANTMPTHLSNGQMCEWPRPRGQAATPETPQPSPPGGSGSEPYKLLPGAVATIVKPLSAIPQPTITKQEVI
AF4-AF9 inh – inhibitors of human MLL-AF4/AF9 interaction; inhibition, % at 10 µM; AID 651704; 350,000 tested, 0.47% active; P42568; AlphaScreen, biotin-AF4 peptide binding to FLAG-AF9;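 active means every replicate reaching a set inhibition limit, whatever the replicate mean, cut at about 25% in these data; inconclusive means mean inhibition reaches that limit but some replicates miss it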;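 further: 0% = plate neutral control median and 100% = total signal loss; the record names both 10 and 1 µM as test concentration; the first replicate is given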
FGF22 binding – shifts melting point of recombinant human FGF22 | recombinant FGF22 thermal shift, SYPRO orange fluorescence; percent of sucrose octasulfate shift, DMSO zero | Q9HCT0 | 340,000 tested, 1.5% active | calls only at 9.99 µM;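 active means melting point raised past a set limit in the mean and every replicate; inconclusive means no clear call; three in four hits are not shown here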
Target sequence (Q9HCT0 whole entry, looked up): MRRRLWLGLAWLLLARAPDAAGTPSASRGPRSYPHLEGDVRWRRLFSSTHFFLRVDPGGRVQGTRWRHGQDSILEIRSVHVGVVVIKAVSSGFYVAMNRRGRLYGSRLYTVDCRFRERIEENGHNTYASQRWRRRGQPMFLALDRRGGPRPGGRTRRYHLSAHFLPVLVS
Ecoli growth – E. coli growth inhibition. AID 1053175. OD600 absorbance (test concentration not listed). Escherichia coli growth, OD600, 23 h; stronger effect = lower value. 330,000 tested, 0.21% active;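 active means OD600 absorbance below the run mean of sample wells minus 3.6 SD, in any replicate, cut at about 0.56 in these data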;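 further: stock transfer was 300 nL into about 60 µL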
rRNA inh HTS – selective bacterial rRNA inhibition in E. coli; E. coli WT GFP vs humanized-ribosome RFP mutants, fluorescence, 24 h; stronger effect = lower value; DMSO median 0, no signal -100; GFP signal change (wild-type ribosome), % (no concentration beside the values); 350,000 tested, 1.6% active; AID 720706;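 active means significant combined selectivity score with lowered wild-type GFP, culture density cut under 30%, mutant RFP and density less affected; inactive means any of these conditions unmet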; further: one replicate is shown; some compounds called inactive have numbers as strong as hits
ALR H2O2 inh – human ALR oxidase inhibition via reduced H2O2; P55789; purified ALR, DTT oxidation, H2O2 HRP-luminol luminescence; inhibition, % (test concentration not listed); 290,000 tested, 3.8% active;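 active means mean and each replicate at 75% or more; inconclusive means only one of the two met; inactive means neither met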;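 further: stock transfer was 7.5 nL into about 7.5 µL; 0% = neutral wells and 100% = wells with inactivated enzyme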
Target sequence (P55789 whole entry, looked up): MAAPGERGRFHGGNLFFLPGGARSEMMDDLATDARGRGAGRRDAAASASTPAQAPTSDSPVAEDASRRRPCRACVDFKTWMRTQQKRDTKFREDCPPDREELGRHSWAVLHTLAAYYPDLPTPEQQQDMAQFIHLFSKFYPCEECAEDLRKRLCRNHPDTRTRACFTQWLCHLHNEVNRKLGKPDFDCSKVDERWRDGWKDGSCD
Vif TR-FRET – HIV-1 Vif–A3G interaction blockers – biochemical, TR-FRET, GST-Vif 1-94, biotin-A3G peptide, dose response retest, primary screen (AID 1117319) | TR-FRET GST-Vif / biotin-A3G peptide binding; higher % means a stronger effect; test concentration not given here; strong numbers were not always called active | inhibition, %, or IC50 in µM where a hit was titrated | 260,000 tested, 0.57% active;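 active means above the screen mean plus three standard deviations and confirmed in dose response; inconclusive means results disagree or hit not tested in dose response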;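 further: Vif residues 1-94 fused to GST binding biotinylated APOBEC3G peptide 110-148; 0% = full assay without inhibitor and 100% = GST in place of GST-Vif; retest series ran down from 100 µM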
rRNA inh HTS OD600 – recorded beside rRNA inh HTS, whose call it bears; OD600 change, %; measured here: OD600 growth;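 optical density of the mix in the first replicate; 0 = DMSO median and -100 = no signal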
rRNA inh HTS RFP – also measured in rRNA inh HTS; calls as there; RFP signal change, %; measured here: RFP humanized mutant strains;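 first replicate; 0 = DMSO median and -100 = no signal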
* hit, by the source's call; i = inactive; ? = inconclusive; / = no result given; + = active, no number. These rows are one share of the data; count on the stated rates, not on these rows.

A first look, 2 compounds:
SMILES	HNF4A DNA FP	AF4-AF9 inh	FGF22 binding	Ecoli growth	rRNA inh HTS	rRNA inh HTS OD600	rRNA inh HTS RFP	ALR H2O2 inh	Vif TR-FRET
O=C1NC(=O)/C(=C\c2ccc(OCc3cnc(Cl)s3)cc2)S1	-5.8	-0.1	i	0.72	-3	-4	-0.5	-4	14%
O=C(NCCCN1CCOCC1)c1cc(-c2ccc(O)cc2)on1	0.5	8.7	i	0.69	-1	5	2.9	98*	-1%

This part in full, from the start:
SMILES	HNF4A DNA FP	AF4-AF9 inh	FGF22 binding	Ecoli growth	rRNA inh HTS	rRNA inh HTS OD600	rRNA inh HTS RFP	ALR H2O2 inh	Vif TR-FRET
O=C1NC(=O)/C(=C\c2ccc(OCc3cnc(Cl)s3)cc2)S1	-5.8	-0.1	i	0.72	-3	-4	-0.5	-4	14%
O=C(NCCCN1CCOCC1)c1cc(-c2ccc(O)cc2)on1	0.5	8.7	i	0.69	-1	5	2.9	98*	-1%
C=Cc1ccc2c(c1)N(C)C(=C)S2	-0.1	-9.0	i	0.67	18	17	3.1	18	23%
O=C(N[C@H]1CC[C@H](CCNS(=O)(=O)Cc2ccccc2)O[C@H]1CO)c1ccccc1F	/	-8.5	i	/	8	3	-3.0	/	/
Oc1ccc(N2CCN(C(=S)NCCc3ccccc3)CC2)cc1	0.5	/	/	0.73	/	/	/	?	?
Cc1ccc(C(=O)Nc2nnc(NC(=S)Nc3ccccc3)s2)cc1	0.5	-0.9	/	0.74	2	8	28	26	-18%
CCCCC1(CCCC)NC(=S)N(Nc2ccc(C)cc2)C1=O	-4.2	/	/	0.71	/	/	/	-6	5%
CCOC(=O)C1CCCN(CC(O)COC(c2ccccc2)c2ccccc2)C1 (centres undefined)	-1.2	2.0	i	0.65	6	-3	3.8	-3	/
Cc1cc(F)ccc1NC(=S)NCCc1ccccc1	7.7	1.3	i	0.69	-2	-5	-1.1	11	/
COc1cc(C(=O)N2CCC(n3cnc4cc(F)ccc43)CC2)cc(OC)c1OC	1.0	/	/	0.7	/	/	/	/	?
CC(C)(C)n1ncc2c(=O)n(CC(=O)c3ccccc3)cnc21	-3.1	/	/	0.64	/	/	/	-1	9%
COc1ccc(-c2noc(CCC(=O)NCC3CCCO3)n2)cc1 (centres undefined)	-1.2	1.1	i	0.67	8	6	0.8	-20	/
CN(Cc1cccs1)S(=O)(=O)c1ccc(Cl)cc1F	6.3	-2.2	i	0.7	-17	-23	-2.9	-5	/
O=C(C[C@@H]1CC[C@H]2[C@@H](COC[C@H](O)CN2CCC(F)(F)F)O1)NCc1ccc(Oc2ccccc2)cc1	/	-2.1	i	/	1	-9	5.9	/	/
CCCN(CCC)S(=O)(=O)c1ccc(C(=O)Nc2nc(-c3ccccc3)c(C(=O)OCC)s2)cc1	-0.5	/	/	0.7	/	/	/	0	/
COC(=O)c1ccccc1NC(=O)CSc1ccc(C)cc1	0.9	/	/	0.7	/	/	/	/	20%
O=C(CC1SC(=Nc2ccc3c(c2)OCCO3)NC1=O)Nc1ccc(F)cc1F (centres undefined)	2.3	7.6	i	0.69	5	2	-5.8	-7	/
Cc1ccc2nc(SCC(=O)N3CC(C)OC(C)C3)nc(=O)n2c1 (centres undefined)	0.0	1.3	i	0.64	8	0	-2.9	-1	4%
Cc1cccc(C(=O)NC(=S)Nc2ccc(N3CCOCC3)cc2)c1	0.4	6.4	i	0.72	2	11	1.6	16	/
COc1cc(CCC(C)=O)ccc1OC(=O)c1c(F)cccc1Cl	2.2	-2.6	i	0.69	/	/	/	-5	0%
CC(NC(=O)COc1ccccc1)C(=O)NCc1ccc(S(N)(=O)=O)cc1 (centres undefined)	-6.5	-2.5	i	0.69	12	20	0.3	-2	4%
C=CCn1c(=O)c(C(=O)NCc2ccc(Cl)cc2)c(O)c2ccccc21	4.2	5.5	i	0.68	2	4	0.8	-13	/
Cc1ccc(S(=O)(=O)N2CCCC2)cc1C(=O)O	-1.6	/	/	/	/	/	/	0	8%
N#C[C@@H]1[C@H](c2ccccc2C2=CCCC2)[C@H](CO)N1C(=O)C1CCC1	/	-0.7	i	/	-2	-1	-0.1	/	/
Cc1ccc[n+](CC(=O)N2CCCCC2)c1C	-0.6	3.2	i	0.7	17	7	6.0	-6	9%
CC(=O)Nc1cnc(-c2ccc(O)cc2C)cn1	-0.9	-5.2	i	/	-1	14	0.1	/	/
O=C(NC1CCCC1)C(c1ccccn1)N(C(=O)c1csnn1)C1CCCCC1 (centres undefined)	-0.2	/	/	0.68	/	/	/	-13	-11%
COc1ccc(-n2c(=O)c3c4c(sc3n(Cc3cccc(F)c3)c2=O)CN(C(C)=O)CC4)c(OC)c1	/	/	/	0.68	/	/	/	-6	-6%
C[C@@H]1CCCCO[C@H](CN(C)Cc2ccncc2)[C@@H](C)CN([C@@H](C)CO)C(=O)c2cc(NC(=O)c3ccncc3)ccc2O1	/	-2.0	i	/	2	8	-2.7	/	/
Cc1ccccc1OCC(=O)Nc1ccc(N2CCOCC2)cc1N1CCOCC1	3.1	9.9	i	0.71	-8	-4	4.2	10	/
O=C(CSc1ccc(-c2ccc(Br)cc2)nn1)NCC1CCCO1 (centres undefined)	0.5	0.4	i	0.73	7	-2	1.6	11	2%
C=CCNC(=O)Cn1nnc(-c2ccc(-c3ccc(OC)cc3)cc2)n1	-2.3	1.8	i	0.66	18	18	1.7	0	-5%
C[C@@H]1CN([C@@H](C)CO)C(=O)c2cc(NC(=O)CCC(F)(F)F)ccc2O[C@@H]1CN(C)S(=O)(=O)c1cccs1	/	-2.8	i	/	-3	0	2.4	/	/
Cc1cc(C(=O)CN2C(=O)C(=O)N(Cc3ccco3)C2=O)c(C)n1CCc1ccccc1	-0.7	0.8	i	0.69	7	6	5.0	0	2%
CCSc1nnc(NC(=O)Cc2cc(OC)c(OC)c(OC)c2)s1	-2.2	-2.4	i	0.66	3	1	2.2	-7	/
N#C[C@@H]1[C@@H](c2ccc(C3=CCCCC3)cc2)[C@@H](CO)N1C(=O)NC1CCCCC1	/	-2.7	i	/	-5	-43	17	/	/
CC(C)(c1ccccc1)c1ccc(OCCN2CCOCC2)cc1	-3.4	3.3	i	0.6	-16	-24	-3.8	0	-2%
COc1ccc(/C=C2\SC(=S)N(CCC(=O)Nc3ccccn3)C2=O)cc1OC	7.4	0.4	i	0.71	8	-2	0.6	/	-2%
Cc1ccc(C)c(OCC(=O)N/N=C\c2cccn2C)c1	2.8	-1.3	i	/	15	2	2.5	13	9%
CC(C)NC(=O)C1(C)Cc2c(-c3ccc(N(C)C)cc3)ccnc2O1 (centres undefined)	2.8	1.8	i	/	16	15	0.6	/	/
COc1cc(/C=N/NC(=O)c2c(-c3ccccc3)noc2C)ccc1O	-0.5	/	/	/	/	/	/	99*	1%
CC(=O)NC(CC(=O)N(Cc1ccccc1)c1cccc(C)c1)c1ccccc1 (centres undefined)	-6.8	2.0	i	0.7	-2	-7	0.8	-13	1%
COc1ccc(C(=O)NCCNc2ccccc2[N+](=O)[O-])cc1	0.4	3.7	i	0.7	-15	-9	0.0	-6	4%
O=C(Cc1cccs1)Nc1nc(-c2cccnc2)cs1	5.9	0.0	i	0.65	10	3	-3.2	-34	-4%
CCOc1ccccc1NC(=O)CNS(=O)(=O)c1ccc2nc(C)sc2c1	3.4	-0.3	i	0.66	-15	-4	-13	8	-1%
CC(C)NC(=O)N(C)C[C@H]1Oc2cc(Br)ccc2S(=O)(=O)N([C@@H](C)CO)C[C@H]1C	/	-3.3	i	/	1	3	-4.0	/	/
O=C(C[C@H]1C[C@@H]2c3cc(NC(=O)Cc4ccncc4)ccc3O[C@@H]2[C@@H](CO)O1)NCCN1CCCCC1	/	5.6	i	/	1	-3	-0.9	/	/
CCc1cc(C(N)=O)c(NC(=O)c2ccc(OC)cc2)s1	1.1	/	/	0.7	/	/	/	-2	-6%
C=CCC[C@H](Cc1ccc(F)cc1)C(=O)OC[C@@H](Cc1c[nH]c2ccccc12)NC(=O)[C@@H](CC=C)CC(=O)NCCO	-0.9	2.2	i	/	-13	-37	22	1	/
CCOC(=O)Cc1csc(NC(=O)/C=C/c2ccc(Br)o2)n1	0.4	33*	i	0.65	-14	-9	3.5	-6	?
Cc1ccc(-c2nn3c(C)nnc3s2)cc1N	3.2	/	/	0.69	/	/	/	-2	23%
CN1C(=O)C2(c3ccccc31)N(C)CC(c1ccccn1)C21SC(=S)N(Cc2ccco2)C1=O (centres undefined)	0.1	/	/	0.73	/	/	/	-8	15%
Cc1ccc(NC(=O)C2C3/C=C\CCCCC32)cc1C (centres undefined)	0.1	1.8	i	0.66	6	2	-2.5	-4	-1%
O=C(C1CCC1)N1[C@@H](CO)[C@@H](c2ccccc2)C12CN(CCC(F)(F)F)C2	/	1.2	i	/	0	0	0.9	/	/
C[C@@H]1CN([C@@H](C)CO)C(=O)c2cc(Br)cnc2O[C@H]1CN(C)C(=O)C1CCOCC1	/	-0.4	i	/	2	1	-1.0	/	/
OC[C@H]1[C@@H](c2ccc(-c3cccnc3)cc2)[C@H]2CN(Cc3ccccn3)CCCCN21	/	-7.0	+	/	1	13	0.5	/	/
Nc1cc(N2CCCC2)c(Cl)cc1[N+](=O)[O-]	-4.2	2.4	i	0.64	-41	-44	-21	/	-2%
Cc1cc(C)n(-c2nc(-c3ccc(Cl)cc3)cs2)n1	-0.6	/	/	0.72	/	/	/	-5	-1%
Cc1cc2[nH]c(=O)c(=O)[nH]c2cc1S(=O)(=O)N1CCC(C)CC1	1.3	0.0	i	0.75	10	7	-1.8	-6	1%
O=C(NCc1cccs1)c1ccc(-c2ccc(F)c(F)c2)c2ccoc12	0.9	-5.6	i	/	-5	-54	-11	/	/
Additional records.
SMILES	HNF4A DNA FP	AF4-AF9 inh	FGF22 binding	Ecoli growth	rRNA inh HTS	rRNA inh HTS OD600	rRNA inh HTS RFP	ALR H2O2 inh	Vif TR-FRET
O=C(/C=C(O)/C=C/c1ccc(O)cc1)/C=C/c1ccc(O)cc1	143	-3.3	i	/	3	-7	12	0	/
CCn1cc(SCC(=O)N2CCc3ccccc32)c2ccccc21	-2.7	1.1	i	0.68	-9	-22	-1.5	98*	2%
COC(=O)c1ccc2c(=O)n(CCCCCC(=O)N3CCN(c4ccc(F)cc4)CC3)c(=O)[nH]c2c1	-4.5	/	/	0.69	/	/	/	4	7%
C/C(=N\OC(=O)c1c(-c2c(F)cccc2Cl)noc1C)c1nccs1	1.6	-1.8	i	/	14	3	0.7	-4	-6%
Cn1nc(C(=O)NCc2ccccc2CN2CCCC2)c2ccccc2c1=O	3.1	-11	i	0.71	1	-2	0.0	/	-3%
COc1ccc(S(=O)(=O)N(C)C[C@H]2OCCCC[C@H](C)Oc3ccc(NS(=O)(=O)c4ccc(F)cc4)cc3C(=O)N([C@@H](C)CO)C[C@H]2C)cc1	/	-0.3	i	/	-1	-1	-0.8	/	/
CCSc1nnc(NC(=O)[C@@H](NC(=O)c2cc(OC)cc(OC)c2)C(C)C)s1	-2.5	-0.6	i	0.64	5	6	1.3	-3	2%
O=C(N/N=C/c1ccc(Cl)cc1Cl)c1cccc(N2CCCC2=O)c1	0.5	11	i	/	0	7	-3.2	-2	/
COc1ccc(-c2nnc(Nc3nc4c(OC)cccc4s3)o2)cc1	-14	/	/	0.69	/	/	/	4	?
CC1(C(=O)Nc2c(F)c(F)c(F)c(F)c2F)CC1(Br)Br (centres undefined)	-0.1	-2.1	i	0.66	-12	-11	-4.5	-9	-3%

Compound activity (PubChem)
